# YjeE inh: YjeE (TsaE) inhibition, E. coli; hit rate 0.05% among 71,000; purified YjeE, fluorescence polarisation of a bound ADP probe; P0AF67; AID 605; Potency, µM; active = well fitted falling curve; inconclusive = weaker or top-dose-only fall, or a rising curve; inactive = flat or poorly fitted curve;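 note: top concentration of the series not given in the record; excess ADP was the control for the full effect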
#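 Purified YjeE (10 uM) with BODIPY Texas Red-labeled ADP probe (2 uM); compounds pin-transferred, 15 min at room temperature. Binding inhibition read as decreased fluorescence polarization; ADP titration as control.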
# PK Bst: modulators of Bacillus stearothermophilus pyruvate kinase. partly purified Bacillus stearothermophilus pyruvate kinase, luminescence ATP production; ribose 5-phosphate activator present at AC10. Potency, µM. hit rate 1.2% among 51,000. AID 361; in the data active means potency below about 11 µM; inconclusive means mostly about 12 µM to 25 µM; inactive means weaker than that;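 the screen sought inhibitors and activators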;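 note: potency is the fitted concentration of half-maximal effect; scaled between full activation by ribose 5 phosphate and full inhibition by luteolin; about four in five hits inhibit and the cells do not say which; series up to 57 µM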
# * hit, by the source's call; i = inactive; ? = inconclusive; / = not tested or not shown. Not all compounds are listed (hit frequency here may not be typical).
PK Bst,YjeE inh,SMILES
/,i,CC1(C)OC[C@@H]2O[C@H](n3cnc4c(N)nc(Cl)nc43)[C@@H](OS(C)(=O)=O)[C@@H]2O1
>57,i,O=C(COc1ccccc1)NCCSCc1ccco1
>57,i,Cn1c(=O)[nH]c(=O)c2c1nc(Br)n2CCOc1ccccc1
>57,i,CC1(C)CC(=O)c2cnc(NCc3ccco3)nc2C1
>57,i,O=C(NCC(c1cccnc1)N1CCN(c2ccccc2)CC1)c1ccc2c(c1)OCO2 (stereo not drawn)
>57,i,CCC(c1nc2ccccc2c(=O)n1-c1cccnc1)N1C(=O)c2ccccc2C1=O (stereo not drawn)
/,i,Cc1cc(NC(=O)COc2cccc3cccnc23)no1
>57,i,c1ccc(Cc2nnc3sc(-c4ccc5c(c4)OCO5)nn23)cc1

# Quoted from the listing (four entries):
PK Bst,YjeE inh,SMILES
/,i,CC1(C)OC[C@@H]2O[C@H](n3cnc4c(N)nc(Cl)nc43)[C@@H](OS(C)(=O)=O)[C@@H]2O1
>57,i,O=C(COc1ccccc1)NCCSCc1ccco1
>57,i,Cn1c(=O)[nH]c(=O)c2c1nc(Br)n2CCOc1ccccc1
>57,i,CC1(C)CC(=O)c2cnc(NCc3ccco3)nc2C1

# (list continues)
PK Bst,YjeE inh,SMILES
/,i,Cc1nc2c3ccccc3[nH]c(=O)n2n1
/,i,Nc1ccc(-c2ccc(N)c(O)c2)cc1O
>57,i,CCOC(=O)CN(C(=O)Cn1nnc2ccccc21)C(C(=O)NCCOC)c1ccccc1C (stereo not drawn)
>57,i,Cc1cc(N2CCN(c3nnnn3-c3ccccc3)CC2)n2ncnc2n1
/,i,CC(C)Oc1ccc(C(=O)Nc2ccc(N(C)C)cc2)cc1
/,i,COc1ccc(NC(=O)c2ccc3c(c2)n(C)c(=O)n3C)cc1
/,i,Cc1sc2c(c1C)c(=O)n(-c1ccccc1)c1nncn21
/,i,COc1ccc(OC)c(NC(=O)c2cc3ccccc3o2)c1

# New compounds follow
PK Bst,YjeE inh,SMILES
>57,i,O=C(c1ccco1)N1CCN(C(=O)C2(S(=O)(=O)c3ccc(Cl)cc3)CC2)CC1
>57,i,O=C(CSc1ncnc2c1cnn2Cc1ccccc1)Nc1ccc2c(c1)OCCO2
/,i,CCN(CC)COC(=S)S
>57,i,C=CCn1c(N)c(C(=O)N2CCN(C)CC2)sc1=S
>57,i,CCN(CC)CCNC(=O)c1ccc2c(c1)ncn2C1CCCCC1
>57,i,O=C(Nc1nnc(-c2ccccc2Cl)o1)c1cccnc1
/,i,COc1ccc(Cl)cc1C(=O)N1CCN=C1SC
/,i,Cn1cccc1Cc1nnc(SCC(N)=O)n1CCc1ccccc1

# Next part.
PK Bst,YjeE inh,SMILES
>57,i,O=C(COc1ccc(F)cc1Br)N1CCc2ccccc21
>57,i,c1ccc(Cn2nnc3c(N4CCCC4)ncnc32)cc1
/,i,COC(=O)N1CCC2(CCCN(Cc3cc(C(F)(F)F)cc(C(F)(F)F)c3)C2)CC1
?,i,CCOc1ccc2nc(NC3=NCN(CC4CCCO4)CN3)nc(C)c2c1 (stereo not drawn)
/,i,CCN1CCCC1Cn1c(-c2ccccc2)nc2c(N3CCOCC3)nc(C)nc21 (stereo not drawn)
/,i,O=S(=O)(NC1CCCCC1)c1ccc(Cl)s1
>57,i,Cc1cccc(OCCCC(=O)O)c1C
>57,i,CC(C)C(=O)N1CCN(c2ccccc2NC(=O)Cc2ccc(Cl)cc2)CC1

# Four entries from above, arranged by SMILES length, smallest number first:
PK Bst,YjeE inh,SMILES
>57,i,Cc1cccc(OCCCC(=O)O)c1C
/,i,O=S(=O)(NC1CCCCC1)c1ccc(Cl)s1
>57,i,CC(C)C(=O)N1CCN(c2ccccc2NC(=O)Cc2ccc(Cl)cc2)CC1
/,i,COC(=O)N1CCC2(CCCN(Cc3cc(C(F)(F)F)cc(C(F)(F)F)c3)C2)CC1

# Later entries:
PK Bst,YjeE inh,SMILES
>57,i,Cc1csc(OCc2ccc(C#N)cc2)n1
i,i,COc1ccc(OCC(=O)Nc2ccc3c(c2)nc(CCN2CCOCC2)n3C)cc1
/,i,O=S(=O)(Cc1ccccc1)N1CCC(N2CCN(c3ccccc3)CC2)CC1
/,i,O=C(NCCCN1CCOCC1)c1cc(-c2ccc(O)cc2)on1
>57,i,COc1ccc(C(=O)N2CCCC(c3nc(-c4ccc(OC)c(OC)c4)no3)C2)c(OC)c1 (stereo not drawn)
/,i,Cc1ccc2ccc(S(=O)(=O)n3nc(C)cc3C)cc2c1
>57,i,CCCC(=O)N1CCN(c2ccc(NC(=O)c3ccccc3)cc2)CC1
>57,i,O=S(=O)(Nc1ccc(C(F)(F)F)cc1)c1cnc[nH]1

# New compounds follow.
PK Bst,YjeE inh,SMILES
>57,i,COc1ccc(-c2noc(CSc3nnc(CCc4ccccc4)n3-c3ccccc3)n2)cc1OC
>57,i,O=C(CN1CCN(S(=O)(=O)c2ccc(Cl)cc2)CC1)Nc1ccc2c(c1)OCO2
>57,i,COC(=O)CN(c1ccc(C)cc1)S(=O)(=O)c1ccc2c(c1)n(C)c(=O)c(=O)n2C
>57,i,Cc1ccc(C(C(=O)NC(C)(C)C)N(C(=O)c2csnn2)c2cccc(F)c2)o1 (stereo not drawn)
>57,i,CC(C)CCNC(=O)NC(=O)CSc1nnc2ccccn12
>57,i,CCN=C1SCC(=O)N1c1ccc(OC)cc1
>57,i,O=C(NC(=O)N1CCN(c2cccc(Cl)c2)CC1)c1ccccc1
/,i,CN(C)CC[C@H](c1ccc(Cl)cc1)c1ccccn1

# Additional compounds follow:
PK Bst,YjeE inh,SMILES
/,i,CNC(=O)[C@H](C)[C@@H]1C[C@@]1(C)[C@@H](NC(=O)OCc1ccccc1)c1ccccc1
>57,i,C#CCOC(=O)c1ccccc1C(=O)N(CC)CC
>57,i,CC(C)c1[nH]nc2c1C(Cc1ccccc1)C(C#N)=C(N)O2 (stereo not drawn)
>57,i,Cc1nc2c(C(=O)N3CCCC3)c[nH]n2c(=O)c1Cc1ccc(F)cc1Cl
>57,i,CC(C)(C)S(=O)(=O)c1c(C(=O)O)cccc1C(=O)O
/,i,COC(=O)[C@@]1(Cc2ccccc2)[C@H]2c3cc(C(=O)N4CCCC4)n(CCSCCO)c3C[C@H]2CN1C(=O)c1ccccc1
>57,i,CC1=C(C#N)C(NC(=O)C2CC2)(C(F)(F)F)C(=O)N1 (stereo not drawn)
>57,i,O=C1Nc2ccccc2C(O)(C(=O)NCc2ccco2)N1c1ccc(Cl)cc1 (stereo not drawn)

# Following part:
PK Bst,YjeE inh,SMILES
>57,i,COc1cc2c(cc1OC)C1=C(C#N)COCN1CC2
>57,i,CC(C)(C)c1csc(NC(=O)Cn2cnc3ccccc3c2=O)n1
>26,/,CCOC(=O)c1nc2nc(C)c(Cl)c(=O)n2[nH]1
>57,i,COc1ccc(OC)c(S(=O)(=O)N2CCC(C(=O)NCC3CCCO3)CC2)c1 (stereo not drawn)
/,i,NS(=O)(=O)c1cc(Br)c(N=Nc2ccc(O)c3ncccc23)c(Br)c1
/,i,O=S(=O)(NCC1CCCO1)c1cc(Cl)ccc1Br (stereo not drawn)
i,i,CC(=O)c1c(C)nc2cc(Cl)ccc2c1N
>57,i,CCn1c(SCC(=O)N(Cc2ccccc2)C2CCS(=O)(=O)C2)nc2ccccc2c1=O (stereo not drawn)

# Following part.
PK Bst,YjeE inh,SMILES
>57,i,Cc1cc(NC(=O)c2ccc3c(c2)C(=O)N(Cc2cccnc2)C3=O)no1
/,i,OC[C@@H]1O[C@@H](n2cnc3c(NCc4ccco4)ncnc32)[C@H](O)[C@H]1O
>57,i,CCOC(=O)c1c(C)[nH]c(C(=O)C(C)OC(=O)c2cccc(OCc3c(C)noc3C)c2)c1C (stereo not drawn)
>57,i,CC1CCN(C(=O)c2cc(-c3ccc(Cl)c(Cl)c3)on2)CC1
>57,i,O=C(c1ccc2c(c1)N(Cc1ccccc1)C(=O)CS2)N1CCOCC1
>57,i,CCc1nc(SCC(=O)NCC2CCCO2)c2oc3ccccc3c2n1 (stereo not drawn)
>57,i,CC(c1ccccc1)n1c(-c2ccncc2)n[nH]c1=S (stereo not drawn)
/,i,COc1cccc(OCCCN2CCCCC2)c1

# (next part)
PK Bst,YjeE inh,SMILES
>26,/,CN1C(=O)NC(NC(=O)c2ccco2)(C(F)(F)F)C1=O (stereo not drawn)
i,i,CCN(CC)c1ccc(NC(=O)c2ccccc2F)cc1
>57,i,CSc1nnc(Cc2ccc3c(c2)OCO3)o1
>57,i,Cc1cccc(-c2noc(CN(C(=O)c3ccc4c(c3)OCO4)C(C)C)n2)c1
/,i,O=c1c2ccccc2c(C=NC2CCS(=O)(=O)C2)c(O)n1-c1ccccc1 (stereo not drawn)
/,i,Cc1cccc(CN2CCN([C@@H](c3ccccc3)c3ccc(Cl)cc3)CC2)c1
/,i,Cc1c(C(=O)N2CCN(C(=O)c3ccco3)CC2)sc2nc(-c3ccc(F)cc3)cn12
>57,i,CCNc1ccc(C(=O)OCC)cc1NC(=O)c1cccc(N(C)C)c1

# Further structures follow:
PK Bst,YjeE inh,SMILES
/,i,N#Cc1cccc(-c2ccc3ncnc(NCCN4CCOCC4)c3c2)c1
>57,i,Cc1ccc(F)cc1NC(=O)C1CCCN(c2ncccn2)C1 (stereo not drawn)
>57,i,CCCCC(=O)N(c1ccc(OCC)cc1)C1C=CS(=O)(=O)C1 (stereo not drawn)
/,i,Cc1ccc(C)c(Nc2ncnc3nc[nH]c23)c1
>57,i,Cc1nc2ccc(C(=O)N3CCN(c4ccccn4)CC3)cc2s1
>57,i,CCCc1nc2c3cnn(-c4cccc(Cl)c4)c3ncn2n1
/,i,COC(=O)C(NC(=O)c1ccccc1)c1ccccc1 (stereo not drawn)
>57,i,Cc1cc(N2CCC(C)CC2)n2nc(C)c(-c3ccccc3)c2n1

# Remaining list, next part:
PK Bst,YjeE inh,SMILES
>57,i,COC(=O)c1cc2sccc2n1CC(=O)Nc1cccc(SC)c1
/,i,O=[N+]([O-])c1ccc2ncccc2c1CCc1c([N+](=O)[O-])ccc2ncccc12
>57,i,N#CCSc1nc2cc(C(=O)N3CCCC3)ccc2c(=O)n1Cc1ccccc1
>57,i,c1csc(Cc2nn3c(-c4n[nH]c5c4CCC5)nnc3s2)c1
/,i,CSc1ccc2c(c1)N(CC[C@H]1CCCCN1C)c1ccccc1S2
>57,i,CCCCCCC(=O)N1CCC(c2nc3c(nnn3Cc3ccccc3Cl)c(=O)[nH]2)CC1
>57,i,O=C(CSCCO)N1CCc2ccccc21
>57,i,Cc1ccccc1Nc1nc(N)nc(CSc2nc3ccccc3c(=O)n2CCCO)n1

# Continuation.
PK Bst,YjeE inh,SMILES
/,i,CC(=O)c1cccc(NC(=O)c2cc3nc(C)cc(C)n3n2)c1
>57,i,COc1ccccc1OCCC(=O)OCC(=O)Nc1ncc(Cl)cc1Cl
>57,i,c1ccc(-n2nnnc2Oc2ccc(-c3nnco3)cc2)cc1
/,i,COC(=O)[C@H]1C[C@@H]1[C@H](NC(=O)c1cnccn1)c1ccccc1
>57,i,O=S(=O)(NCCOCC(F)(F)F)c1ccc2oc3ccccc3c2c1
>26,/,Cc1cc(=O)oc(C)c1C(=O)NCCC1=CCCCC1
>57,i,O=C(NC1CCC(NC(=O)C2CCCO2)CC1)C1CCCO1 (stereo not drawn)
>57,i,COc1ccc(N2CC(C(=O)Nc3ccccc3C(=O)NCc3ccco3)CC2=O)cc1 (stereo not drawn)

# Continuation.
PK Bst,YjeE inh,SMILES
>57,i,CC(C)(C)OC(=O)c1c(N)n(CCCN2CCCC2=O)c2nc3ccccc3nc12
>57,i,Cc1cc(=O)[nH]c(SCc2cccc(Br)c2)n1
>57,i,CCn1c(SCC(=O)N2CCCC2)nc2ccccc2c1=O
>57,i,COc1ccc(S(=O)(=O)Nc2ccccn2)c(C)c1C
/,i,COc1ccc(N2CSC3=C(C#N)C(c4cccc(OC)c4OC)CC(=O)N3C2)cc1 (stereo not drawn)
>57,i,Cc1nc(C)n(CC(O)COc2ccc(C(=O)c3ccccc3)cc2)n1 (stereo not drawn)
>57,i,CCOc1ccc2nc(NS(=O)(=O)c3ccc(NC(C)=O)cc3)sc2c1
>57,i,CCCCn1c(SCC(=O)c2ccccc2)nc2c1c(=O)[nH]c(=O)n2C

# (list continues)
PK Bst,YjeE inh,SMILES
?,i,COc1ccc(-c2csc(N(CCCN3CCOCC3)C(=O)c3ccco3)n2)cc1
>57,i,O=C1N(CC(=O)N2CCc3ccccc32)CCN1Cc1ccccc1Cl
/,i,CC(=O)Nc1cc2ccc(OC(C)=O)cc2oc1=O
/,i,CN1CCN(C(=O)c2ccc(C(C)(C)C)cc2)CC1
>57,i,CCOC(=O)c1ccc(NC(=O)Cn2nnc(-c3ccc(F)cc3)n2)cc1
>57,i,CC(C)Cn1c(SCC(=O)c2ccc(Cl)s2)nnc1-c1ccco1
/,i,Cc1ccccc1Cn1cnc2c(cnn2C(C)(C)C)c1=O
/,i,COc1cc(C(=O)N2CCC(C(=O)Nc3cccc(C(C)=O)c3)CC2)cc(OC)c1OC

# (further entries)
PK Bst,YjeE inh,SMILES
>57,i,Cc1c(C(=O)N2CCc3ccccc32)oc2c1C(=O)CC(C)(C)C2
>57,i,CC(=O)c1nn(-c2cccc(Cl)c2)cc1C(=O)c1ccco1
>57,i,COCC(C)NC(=O)COc1ccc(Cl)cc1Cl (stereo not drawn)
>57,i,Cc1ccc(CSc2nc3c(c(=O)[nH]2)C(c2ccncc2)C2=C(CCCC2=O)N3)cc1 (stereo not drawn)
>57,i,Cc1noc(C)c1S(=O)(=O)N1CCCC(C(=O)NCC2CCCO2)C1 (stereo not drawn)
>57,i,O=C(CN1CCC(n2nnc3cc(F)ccc32)CC1)NC1CC1
>57,i,CCCc1nc(NCc2ccncc2)c2nnn(Cc3ccccc3F)c2n1
/,i,Cc1cc(N2CCN(C3CCCCC3)CC2)n2nc(C)nc2n1

# Bioassay records as filed in PubChem BioAssay.
